HCMV NEC inh: inhibitors of HCMV UL50-UL53 interaction, biochemical, HTRF; AID 1918969, 2023; inhibition, % (concentration not given with the values); normalized percent inhibition; HCMV UL50-UL53 nuclear egress complex (human cytomegalovirus); 190,000 compounds, 0.15% hits;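 active means both replicates at 50% or more, plus weaker picks with an unusually low signal ratio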;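 further: stock transfer was 100 nL into about 20 µL; 0% = negative control wells and 100% = wells with untagged competitor protein; inactives centre near -12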
Sa growth inh: S. aureus growth inhibition at 42 and 30 °C, primary screen, LtaS inhibitor project, RN4220, two temperatures | OD600, 20 h, 42 °C; active compounds read low | relative growth, % (concentration not given with the values) | 170,000 compounds, 0.53% hits | AID 720641, 2013;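 active means growth at 42 °C up to 50% and 20 or more points under that at 30 °C, or under 10% at both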;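 further: 300 nL library stock went into each well; scaled to the means of positive and negative controls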
GIV-Gai inh: inhibitors of GIV peptide binding to Galpha-i3, primary screen, biochemical, fluorescence polarization, FITC-GIV GBA peptide, rat Galphai3 | 90 min; active compounds read low; scaled: aluminum fluoride 0%, vehicle 100% | percent of control (FP), % (concentration not given with the values) | 210,000 compounds, 0.42% hits;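 active means replicate mean at 85% of control or lower, very high polarization wells dropped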;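 further: wells of about 15 µL received 100 nL stock; the first replicate is given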
Target sequence (P08753 whole entry, looked up): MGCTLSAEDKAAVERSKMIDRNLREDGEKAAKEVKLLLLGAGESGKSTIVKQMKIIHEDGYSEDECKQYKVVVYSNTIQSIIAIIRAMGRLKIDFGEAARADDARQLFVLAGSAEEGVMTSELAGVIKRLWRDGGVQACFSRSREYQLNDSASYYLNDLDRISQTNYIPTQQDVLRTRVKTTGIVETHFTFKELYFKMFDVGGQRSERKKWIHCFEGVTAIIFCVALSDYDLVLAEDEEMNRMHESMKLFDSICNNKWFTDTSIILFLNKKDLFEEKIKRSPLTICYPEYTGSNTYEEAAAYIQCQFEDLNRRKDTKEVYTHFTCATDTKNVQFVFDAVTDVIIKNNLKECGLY
Sa growth inh second temp: second read-out of Sa growth inh, no call of its own (marks repeat the call); relative growth, %; measured here: growth at 30 °C;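 optical density after 20 h as mean of two plates; 100% = untreated growth and lower means inhibition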
Numbers without * were called inactive; / = not tested or not shown.

SMILES,HCMV NEC inh,Sa growth inh,Sa growth inh second temp,GIV-Gai inh
COc1ccc(N2CCN(CCNC(=O)c3nnc(-c4ccc5c(c4)OCO5)o3)CC2)cc1,/,92.8,85.0,103.5
O=S(=O)(NCc1cccnc1)c1ccc2ccccc2c1,-13.0,101.8,93.2,105.0
ONC(=Nc1ccc(C(F)(F)F)cc1)c1c(F)cccc1F,8.2,110.8,88.5,106.7
Cc1n[nH]c(C)c1CCC(=O)O,0.6,108.0,93.6,108.7
N#Cc1c(-n2ncnc2-c2ccccc2Cl)sc2c1CCCCC2,-55.2,94.0,88.3,104.9
CC1=C(C(=O)Nc2ccc(CC(=O)N3CCC4(CC3)OCCO4)cc2)SCCO1,/,95.4,94.7,99.0
Cc1ccc(CN(Cc2cccn2-c2nnc(N3CCCC3=O)s2)C(=O)Nc2cc(C)cc(C)c2)cc1,6.2,105.8,94.1,99.8
COc1ccc(C2C(C(=O)OCCOc3ccccc3)=C(C)NC3=C2C(=O)CC(C)(C)C3)c(OC)c1OC (stereo unspecified),-30.2,/,/,100.6
COc1ccccc1NC(=O)CC(NC1CCCCC1)C(=O)O (stereo unspecified),5.5,93.8,108.6,109.9
O=C(c1cnn(-c2ccc(Cl)cc2)n1)c1cccs1,-47.5,99.0,72.7,100.1
CCc1ccc(NS(=O)(=O)c2ccc3[nH]cc(C(=O)NCCc4cccc(C)c4)c(=O)c3c2)cc1,/,111.1,94.3,96.0
CCOC(=O)C(C(N)=O)C1(O)OC(c2ccccc2)=CC1=O (stereo unspecified),-34.4,106.1,91.9,110.8
Cc1cccc(NC(=O)CSc2cc(C)c3ccccc3n2)c1,-16.8,98.6,87.9,106.1
COC(=O)c1c(NC(=O)c2ccccc2C(=O)O)sc2c1CCCC2,19.6,115.0,80.1,101.0
CCCCOC(=O)C1Cc2ccccc2C(=O)O1 (stereo unspecified),10.2,99.3,93.5,106.2
O=C(Nc1ccc2nsnc2c1)C1CC1,-87.9,111.2,76.7,102.9
COc1ccc(C2=NS(=O)(=O)N(C)C(C(=O)Nc3cc(C)ccc3O)=C2)cc1OC,-35.9,112.2,54.8,106.3
CCOC(=O)C1=C(CS(=O)(=O)c2ccc(Br)cc2)NC(=O)NC1c1ccccc1 (stereo unspecified),-17.4,108.2,88.7,103.7
O=C(NCCc1c[nH]c2ccccc12)C1COc2ccccc2C1 (stereo unspecified),-29.4,/,/,104.1
Cc1nc(Nc2ccccc2)nc(=O)n1-c1ccccc1,-33.6,97.4,93.5,105.4

Overlap with the part before: 2 compounds, followed by the next part.
SMILES,HCMV NEC inh,Sa growth inh,Sa growth inh second temp,GIV-Gai inh
O=C(NCCc1c[nH]c2ccccc12)C1COc2ccccc2C1 (stereo unspecified),-29.4,/,/,104.1
Cc1nc(Nc2ccccc2)nc(=O)n1-c1ccccc1,-33.6,97.4,93.5,105.4
Cc1ccc(C)c(N2CCN(C(=O)c3cnn(C(C)(C)C)c3C3CCN(C(=O)OC(C)(C)C)CC3)CC2)c1,/,94.1,92.5,101.8
CC(C)(C)OC(=O)NC1CCN(C(=O)c2ccco2)CC1,/,87.1,96.2,110.1
CCCN(CCC)C(=O)c1cnn(-c2ccc(F)cc2)c1-n1cccc1,-16.6,95.0,96.3,102.2
CCN(CC)C(=O)C1CC(c2ccc(F)cc2)=NO1 (stereo unspecified),-12.2,100.1,88.3,100.0
COC(=O)c1nn(-c2ccccc2)cc1OCC(=O)N1CCc2ccccc21,-1.4,68.6,91.9,/
CCOC1(OCC)N=C(N)C2(C#N)C(c3ccc(NC(C)=O)cc3)C12C#N (stereo unspecified),-24.9,91.6,85.3,106.0
CCN1C(=O)C2C(c3ccc(F)cc3)NC(CCSC)(C(=O)OC)C2C1=O (stereo unspecified),-4.9,118.3,106.5,102.7
C=CCN[C@H]1CS(=O)(=O)C[C@@H]1S(=O)(=O)c1ccc(F)cc1,-24.3,/,/,102.9
CC(C)C(N)c1nc2ccccc2[nH]1 (stereo unspecified),-29.7,81.6,76.7,/
Oc1ccccc1N1CCN(C=Nc2nc3ccccc3nc2N2CCOCC2)CC1,-50.8,76.2,73.8,/
COc1ccc(CCNC(=O)CCCCn2c(=O)c3ccccc3n(Cc3ccccc3Cl)c2=O)cc1OC,-12.5,96.5,90.3,100.0
CCNc1nc(SCC(=O)OCC)nc2sc3c(c12)CCC(C)C3 (stereo unspecified),-33.2,80.3,87.8,103.2
O=C(O)/C=C/c1ccc(Cl)c(Cl)c1,-47.0,110.8,87.0,/
Cc1nc(N(C)C)cc(N2CCN(C(=O)Nc3cccc(Cl)c3)CC2)n1,-16.8,/,/,100.1
N#Cc1c(N)nc2c(c1-c1ccc(Cl)cc1)CCCC2,0.0,102.9,95.1,100.5
CCN1CCCC1CNC(=O)C1c2ccccc2C(=O)N(CC(C)C)C1c1cccs1 (stereo unspecified),/,102.2,93.2,99.1
COc1ccc(OC)c(CCNC(=O)c2c(C)oc3ncn(C)c(=O)c23)c1,/,95.3,89.3,105.8
CN(c1ccc2c(c1)OCCO2)S(=O)(=O)c1ccsc1-c1nc(-c2ccccc2)no1,-23.9,/,/,103.2
CCc1ccc(S(=O)(=O)c2cnc3ccccc3c2N2CCN(C)CC2)cc1,-56.9,84.5,78.7,106.4
Cc1cc(C)c(NC(=O)c2c(C)oc3c2C2=NCCN2C=N3)c(C)c1,/,103.0,92.4,101.4
COc1ccc(-c2c(N)n[nH]c2C)cc1OC,-9.9,108.1,87.1,103.8
Cc1csc(NC(=O)c2cc3c(s2)CCC3)n1,2.7,74.6,94.0,/
O=C(/C=C/c1cn(-c2ccccc2)nc1-c1ccc2c(c1)OCCO2)NCCO,-70.9,74.3,53.9,/
CC1CCCC(C)N1C(=O)COC(=O)c1cccc(Br)c1 (stereo unspecified),-21.7,79.8,88.5,/
CC1CC(C)CN(C(=O)COc2ccccc2)C1 (stereo unspecified),-13.6,106.1,83.9,/
CCOC(=O)CN1CC23C=CC(O2)C(C(=O)Nc2ccc(CC)cc2)C3C1=O (stereo unspecified),/,96.6,91.3,100.9
N#CCc1nc(-c2ccc3c(c2)OCCCO3)cs1,-0.8,113.7,91.5,105.5
COC(=O)c1ccc(NC(=O)c2sc3nc(C)cc(=O)n3c2C(=O)Nc2cccc(C)c2C)cc1,-4.4,/,/,106.2
CCCc1ccc(OCc2ccc(C(=O)n3cc(Br)cn3)cc2)cc1,/,107.1,70.8,106.8
CCNC(=O)CC1S/C(=N\N=C\c2ccc(C)o2)NC1=O (stereo unspecified),-43.2,84.0,107.7,98.0
CCOC(=O)c1[nH]c(C)c(S(=O)(=O)Nc2ccc(OC)c(OC)c2)c1C,-21.1,/,/,107.2
COc1cccc(OC)c1C(=O)Nc1ccc(N2CCCS2(=O)=O)cc1,-12.6,/,/,100.4
Cc1cc(C)cc(OCC(=O)Nc2ccc(Cl)c(-c3nc4ncccc4o3)c2)c1,3.9,94.5,103.0,100.2
Cc1coc(NC(=O)CSc2nc3c(c(C(F)(F)F)c2C#N)CC(c2ccccc2)CC3)n1 (stereo unspecified),-20.5,106.7,84.3,100.9
COc1ccc(NC(=O)CNC(=O)Cn2ccc3ccccc3c2=O)c(OC)c1,-4.0,94.4,97.5,107.6
Fc1ccc(-n2ncc3c(Nc4ccc(Oc5ccccc5)cc4)ncnc32)cc1,/,120.9,91.9,104.0
COC(=O)c1ccc(NC(=O)C2CCN(C(=O)c3ccc(F)cc3)CC2)cc1,-34.1,97.7,88.8,105.7
COc1ccc(OC)c(C2=NOC(C(=O)Nc3c(C)n(C)n(-c4ccccc4)c3=O)C2)c1 (stereo unspecified),-23.0,95.0,86.5,100.1
Cc1ccc2cccc(NC(=O)c3ccc(OC(C)C)cc3)c2n1,7.2,100.0,94.8,111.0
C=CCC1(CC=C)CCCN1,-17.9,104.5,90.2,105.3

In a second layout: five of the compounds above
Order of results – HCMV NEC inh | Sa growth inh | Sa growth inh second temp | GIV-Gai inh
Cc1coc(NC(=O)CSc2nc3c(c(C(F)(F)F)c2C#N)CC(c2ccccc2)CC3)n1 (stereo unspecified)
→ -20.5 | 106.7 | 84.3 | 100.9
COc1ccc(NC(=O)CNC(=O)Cn2ccc3ccccc3c2=O)c(OC)c1
→ -4.0 | 94.4 | 97.5 | 107.6
Fc1ccc(-n2ncc3c(Nc4ccc(Oc5ccccc5)cc4)ncnc32)cc1
→ / | 120.9 | 91.9 | 104.0
COC(=O)c1ccc(NC(=O)C2CCN(C(=O)c3ccc(F)cc3)CC2)cc1
→ -34.1 | 97.7 | 88.8 | 105.7
COc1ccc(OC)c(C2=NOC(C(=O)Nc3c(C)n(C)n(-c4ccccc4)c3=O)C2)c1 (stereo unspecified)
→ -23.0 | 95.0 | 86.5 | 100.1

Carrying on:
SMILES,HCMV NEC inh,Sa growth inh,Sa growth inh second temp,GIV-Gai inh
COCCNC(=O)c1ccc(Cl)cc1,-30.5,86.1,81.3,100.2
O=C1CNC(=O)/C1=C\c1ccc(Br)cc1,-14.1,79.3,65.7,92.1
O=c1oc2cc(O)ccc2c2c1CCCC2,-29.9,92.7,68.8,105.6
O=S(=O)(NCCc1csc2nc(-c3ccc(Cl)cc3)nn12)c1ccc(Oc2ccccc2)cc1,/,125.8,84.3,94.7
COc1ccc(C(O)c2cccs2)cc1OC (stereo unspecified),/,121.8,81.1,97.6
O=C(NCc1ccccc1)c1ccc(N2CCCC2=O)cc1,4.3,95.1,95.0,112.4
CC(Oc1cccc(Oc2ccccc2)c1)C(N)=O (stereo unspecified),7.1,131.1,102.7,/
CN(CC(=O)Nc1ccc(OC(F)(F)F)cc1)C(=O)/C=C/c1ccco1,-26.0,86.9,87.1,/
CCN(CC)CCNC(=O)c1c2c(nc3ccccc13)C(=O)N(C1CCCCC1)C2,/,79.0,89.3,100.9
CC1(C)O[C@@H]2CC3C4CCC5=CC(=O)C=C[C@]5(C)[C@@]4(F)[C@@H](O)C[C@]3(C)[C@]2(C(=O)CO)O1 (stereo partly specified),-16.9,94.8,95.2,/
COc1cc2nc(C3CCC3)n(NC(=O)COc3ccccc3)c(=O)c2cc1OC,1.4,98.4,72.3,98.7
COc1cc(C(=O)N2CCSC2=NCCc2ccccc2)ccc1OCc1c(C)noc1C,0.6,93.9,91.7,/
S=C(Cc1ccc(CC(=S)N2CCOCC2)cc1)N1CCOCC1,-9.3,95.5,89.5,105.1
Cn1nc(C(C)(C)C)cc1C(C)(C)C,3.5,110.6,96.0,104.2
CCOC(=O)c1c(C)n(C)c2ccc(OCC(O)CNCc3ccco3)cc12 (stereo unspecified),7.7,102.0,92.1,108.8
O=C(CN1CCC(C(=O)c2ccc(F)cc2)CC1)Nc1ccccc1,-2.5,93.2,97.5,100.1
CCN(CC(=O)Nc1ccc(Br)cc1)C(=O)c1nc2nc(C)cc(C)n2n1,-25.2,63.4,63.0,/
COc1ccc(OCC(=O)Nc2nnc(S(=O)(=O)N3CCCCCC3)s2)cc1,4.0,97.3,87.5,96.2
O=C1c2ccccc2C(=O)c2c1cccc2-c1cccc2c1C(=O)c1ccccc1C2=O,-5.2,/,/,100.2
CC(=O)c1ccc(NC(=O)C2CCC(CNS(=O)(=O)c3cccs3)CC2)cc1 (stereo unspecified),2.4,109.5,88.5,104.9

Single values from the list:
`CCN(CC)CCNC(=O)c1c2c(nc3ccccc13)C(=O)N(C1CCCCC1)C2` in Sa growth inh second temp = 89.3
`Cc1cc(C)c(NC(=O)c2c(C)oc3c2C2=NCCN2C=N3)c(C)c1` in Sa growth inh = 103.0
`Cc1cc(C)cc(OCC(=O)Nc2ccc(Cl)c(-c3nc4ncccc4o3)c2)c1` in GIV-Gai inh = 100.2
`CCOC(=O)C(C(N)=O)C1(O)OC(c2ccccc2)=CC1=O` (stereo unspecified) in HCMV NEC inh = -34.4

(listing goes on)
SMILES,HCMV NEC inh,Sa growth inh,Sa growth inh second temp,GIV-Gai inh
Cc1cc2nc(C)c(=O)n(CC(=O)NCCc3c[nH]c4ccccc34)c2cc1C,-2.2,/,/,103.3
O=S(=O)(NCCc1ccccc1)c1cccc2nsnc12,-91.7,/,/,105.2
Cc1ccc(CNC(=O)Cc2c(C)c3cc4c(C)coc4cc3oc2=O)cc1,-27.5,128.3,91.5,104.1
Cc1ccccc1NC(=O)N1CCc2c(sc3c2CCCC3)C1c1ccccc1 (stereo unspecified),/,115.2,85.7,98.0
